Bioassay records from PubChem BioAssay.
GLA inh pH 4.5 = qHTS Assay for Inhibitors of Human alpha-Galactosidase at pH 4.5; Alpha-galactosidase A (Homo sapiens), P06280; purified enzyme, 4-MU-alpha-Gal fluorescence, pH 4.5; activity change, negative = inhibition, % at 105 µM; 230,000 tested, under 10 active; AID 1467, 2008; inconclusive = small, poorly fitted or top-dose-only inhibition, or a rising curve; inactive = flat fitted curve, though single readings scatter; no compound was filed as active;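 note: 0% = full activity with enzyme and -100% = basal without enzyme; dose as in the result columns while the protocol names 77 µM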
Rango-impB inh = qHTS Assay for Inhibitors of Rango (Ran-regulated importin-beta cargo) - Importin beta complex formation; Importin subunit beta-1 (Homo sapiens), Q14974; Rango CFP/YFP FRET sensor + importin beta, 45 min; Potency, µM (highest dose often 92.2 µM), for inactives: top-dose inhibition of complex formation; hit rate 0.031% among 340,000; AID 540263, 2011; active = rising FRET ratio curve, often small or poorly fitted; inconclusive = mostly compound fluorescence or quenching in the first reads; inactive = flat curves in all reads;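 note: potency is the fitted concentration of half-maximal effect; 0% = DMSO wells and 100% = buffer wells lacking importin beta; nearly all actives have a fitted effect of over 15% in size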
Target sequence (Q14974 whole entry, looked up): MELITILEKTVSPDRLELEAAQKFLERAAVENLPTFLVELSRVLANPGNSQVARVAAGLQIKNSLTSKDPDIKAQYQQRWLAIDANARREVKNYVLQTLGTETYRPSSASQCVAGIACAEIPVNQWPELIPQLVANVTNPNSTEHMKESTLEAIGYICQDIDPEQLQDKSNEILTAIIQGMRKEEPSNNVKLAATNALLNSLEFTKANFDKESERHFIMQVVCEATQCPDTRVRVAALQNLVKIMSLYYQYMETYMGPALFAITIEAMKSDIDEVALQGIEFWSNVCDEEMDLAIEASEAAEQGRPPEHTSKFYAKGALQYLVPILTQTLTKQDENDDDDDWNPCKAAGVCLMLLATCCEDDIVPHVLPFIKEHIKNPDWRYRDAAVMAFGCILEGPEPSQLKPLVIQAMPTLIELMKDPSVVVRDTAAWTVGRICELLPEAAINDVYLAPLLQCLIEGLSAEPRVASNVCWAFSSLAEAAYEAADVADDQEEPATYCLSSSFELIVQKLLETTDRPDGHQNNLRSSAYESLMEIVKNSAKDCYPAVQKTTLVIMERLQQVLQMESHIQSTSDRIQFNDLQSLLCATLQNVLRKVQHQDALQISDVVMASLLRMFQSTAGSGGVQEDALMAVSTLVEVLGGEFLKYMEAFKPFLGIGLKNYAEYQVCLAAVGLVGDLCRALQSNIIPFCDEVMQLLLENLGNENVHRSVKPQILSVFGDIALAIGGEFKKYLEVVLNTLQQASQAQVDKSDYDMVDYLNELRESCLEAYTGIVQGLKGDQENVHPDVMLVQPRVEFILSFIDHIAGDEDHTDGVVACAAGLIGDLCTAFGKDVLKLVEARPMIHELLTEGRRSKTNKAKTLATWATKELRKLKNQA
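FRET biosensor Rango (snurportin 1 IBB between N-terminal EYFP and C-terminal Cerulean), 50 nM in PBS/1 mM DTT/0.02% Tween-20/0.1% BSA, preincubated 5 min RT with compound; 0.125 microM importin beta added, 45 min RT, CFP/YFP FRET ratio read.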
Rango release inh = qHTS Assay for Inhibitors of RanGTP induced Rango (Ran-regulated importin-beta cargo) - Importin beta complex dissociation | Snurportin-1 (Homo sapiens) + GTP-binding nuclear protein Ran (Homo sapiens) + Importin … | Biochemical FRET Rango-importin beta, RanGTP-induced dissociation | Potency, µM (highest dose often 46.1 µM), inactives show at the highest dose activity change, negative = inhibition | hit rate 0.071% among 340,000 | AID 540253, 2011; active means falling FRET ratio curve, often poorly fitted, with flat reads before Ran was added; inconclusive means other falling curves, or compound fluorescence or quenching; inactive means flat or rising ratio curve;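 note: potency is the fitted concentration of half-maximal effect; % of control where 0% means no effect; nearly all actives have a fitted effect of over 45% in size; -100% = wells without RanGTP and RCC1; the record marks most hits as doubtful in a second field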
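FRET read at 45 min, room temperature: inhibitors block the CFP/YFP signal rise when RanGTP (0.6 uM Ran, 2 mM GTP, 0.2 uM RCC1) frees Rango (0.1 uM) from importin beta (0.25 uM). Pre-read after 5 min compound exposure flags interference.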
miR-21 FLuc = qHTS Assay for Modulators of miRNAs and/orActivators of miR-21; HeLa miR-21 FLuc reporter, luciferase, 48 h; Potency, µM (series often up to 38.3 µM), for the others: at the highest dose reporter change, positive = more light; 340,000 tested, under 10 active; active = well fitted rising curve with a large enough effect; inconclusive = small, poorly fitted or top-dose-only effect; inactive = no such curve, though single readings can be large or run the other way;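 note: % of control where 0% means no effect; miR-21 action dims this reporter so a rising signal means less miR-21 action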
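Using DMEM plus 10% FBS, HeLa miR-21-FLuc cells are incubated with test compounds (final up to about 40uM) for 48 hours; firefly luciferase signal is then imaged following reagent-mediated lysis.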
Numbers without * were called inactive; ? = inconclusive; nt = not tested or not shown; [ ] = remark or other dose.

GLA inh pH 4.5,Rango-impB inh,Rango release inh,miR-21 FLuc,Structure
nt,-0.3%,3%,nt,Cc1csc(=O)n1CC(=O)OCC(=O)Nc1cc(S(=O)(=O)N2CCOCC2)ccc1Cl
-10,-5.3%,-17%,-1%,Cn1c(=O)c2c(nc(SCC(=O)Nc3ccccc3)n2C)n(C)c1=O
2,0.5%,6%,0%,O=C1c2ccc(Br)cc2C(=O)N1c1ccc(Cc2ccncc2)cc1
nt,?,-19%,nt,CSc1ccc(C2NN=C(c3ccccc3)S2)cc1 (stereo not given)
-4,-0.5%,-22%,-12%,CCc1ccc(-c2nc(CS(=O)CC(=O)NCc3cccnc3)c(C)o2)cc1 (stereo not given)
-4,-2.5%,5%,-41%,CCOc1cc(C2c3c(n[nH]c3C)C(=O)N2c2ccc(C)cc2)ccc1O (stereo not given)
3,1.4%,-10%,-5%,CN1CCN(C(=O)CNc2ccc(C(F)(F)F)cc2[N+](=O)[O-])CC1
nt,-1.6%,-1%,nt,O=C(Nc1ccc(S(=O)(=O)N2CCCCC2)cc1)C1CC(=O)N(Cc2ccccc2)C1 (stereo not given)
10,0.9%,-3%,-2%,COC(=O)CN(c1cc(OC)ccc1OC)S(=O)(=O)c1ccc(OC)c(OC)c1
nt,0.6%,7%,nt,O=C(CCNC(=O)c1ccccc1Cl)NNC(=O)c1ccccc1O
-14,0.3%,20%,25%,Cn1c(N=Nc2ccccc2)nc2ccccc21
-9,1.0%,11%,1%,FC(F)(F)c1n[nH]c(=S)n1/N=C/c1ccco1
nt,-1.0%,-10%,nt,O=C(COC(=O)c1cccc(-n2cnnn2)c1)c1ccc(F)cc1
-3,-0.4%,0%,0%,COC(=O)c1ccc(Oc2c(F)c(F)nc(N3CCOCC3)c2F)cc1
-4,-5.3%,-19%,-12%,Cc1cccc(N=C2NC(=O)/C(=C/C=C/c3ccco3)S2)c1C
1,nt,nt,-11%,COc1ccc2nc(NC3=NCN(CC4CCCO4)CN3)nc(C)c2c1 (stereo not given)
-5,2.2%,0%,7%,COCCCNC(=O)C1CCN(C(=O)c2cc3sccc3n2Cc2ccc(F)cc2)CC1
nt,5.5%,-5%,nt,CCCCN1C(=O)C(=O)N(CC(=O)c2ccc[nH]2)C1=O
nt,1.7%,-2%,-53%,CCc1cccc(NC(=O)c2sc3nc4n(c(=O)c3c2C)CCC4)c1
4,-0.5%,10%,3%,Cc1ccc2[nH]c(=O)c(C(c3nnnn3CC3CCCO3)N3CCOCC3)cc2c1 (stereo not given)
4,-0.9%,-6%,-2%,O=C(CSc1nnnn1-c1ccccc1)Nc1nc(-c2ccccc2)ns1
2,-0.5%,3%,1%,CCc1ccc(-c2csc(NC(=O)c3cccnc3)n2)cc1
2,1.6%,2%,-9%,Cc1nc(CCNS(=O)(=O)c2cccs2)cs1
nt,-4.6%,0%,-6%,Cc1cccc2c(=O)n3c(nc12)CCCCC3
1,-0.4%,-6%,-3%,CC1=C(C(=O)NCc2ccccc2)C(c2cccs2)n2ncnc2N1 (stereo not given)
-2[21.1 µM],?,1%,-3%,CCOC(CNC(=O)Cc1c(C)nc2c(-c3ccccc3)c(C)nn2c1C)OCC
nt,-2.9%,-7%,-1%,Cc1nn(Cc2c(F)c(F)c(F)c(F)c2F)c(C)c1NC(=O)c1nn(C)c(C)c1Br
nt,?,12%,nt,COc1cc(C(=O)NC2CCN(C)CC2)ccc1Nc1ncc2c(n1)N(CCc1ccccc1)CCC(=O)N2C
nt,-1.5%,-8%,-3%,CC(=O)c1cccc(N(CC(=O)Nc2ccccc2C(=O)N2CCCC2)S(C)(=O)=O)c1
-5,0.8%,?,0%,COc1ccccc1/C=N/NC(=O)CC(=O)NC1CCCCC1
nt,-1.5%,0%,-3%,CC(NC(=O)c1ccc(CS(C)(=O)=O)cc1)c1ccc(-n2ccnc2)cc1 (stereo not given)
-6[21.1 µM],?,-21%,6%,COc1ccc(-n2cc(-c3ccccc3)c3c(NN4CCOCC4)ncnc32)cc1
-1,-1.8%,-4%,8%,COc1cccc(C(c2c(N)n(C)c(=O)n(C)c2=O)C(C)[N+](=O)[O-])c1 (stereo not given)
-10,-2.0%,2%,-3%,OC(c1ccccc1)(c1ccccc1)C1CCN(C(=S)NC2CCCC2)CC1
nt,-1.4%,23%,-8%,Cc1ccc(C23CC4CC(CC(C(N)=O)(C4)C2)C3)cc1
nt,7.9%,-10%,nt,Nc1ccc2c(c1)C(=NO)c1cc([N+](=O)[O-])ccc1-2
nt,0.6%,8%,0%,CCCCS(=O)(=O)Nc1ccc(N2CCOCC2)c(S(=O)(=O)N2CCOCC2)c1
-7,?,-4%,2%,O=C(NC12CC3CC(CC(C3)C1)C2)c1ccc(COc2ccc(Cl)cc2[N+](=O)[O-])o1
nt,4.3%,4%,nt,O=C(NCCCN1CCCC1=O)C1CCN(S(=O)(=O)c2ccc(F)cc2)CC1
-3,-3.5%,2%,-3%,NCCn1c(-c2ccccc2)cc(C(=O)O)c1-c1ccccc1F
-15,-1.4%,-9%,-2%,CC(Sc1nnnn1C)C(=O)NC1CCCc2ccccc21 (stereo not given)
-2,7.4%,-3%,6%,COc1ccc(CC(=O)Nc2cc(C)ccc2O)cc1OC
-11,0.0%,23%,1%,O=C(COC(=O)c1ccc(Br)o1)Nc1cccc(S(=O)(=O)N2CCCCCC2)c1
nt,0.0%,15%,nt,Cc1cc(OCc2nc(N)nc(N)c2-c2ccc(Cl)c(Cl)c2)ccc1[N+](=O)[O-]
nt,-0.2%,-1%,-2%,CCOC(=O)c1c(C)oc2cc(Br)c(OC(C)C(=O)OCC)cc12 (stereo not given)

Compounds listed so far that contain bromine:
GLA inh pH 4.5,Rango-impB inh,Rango release inh,miR-21 FLuc,Structure
2,0.5%,6%,0%,O=C1c2ccc(Br)cc2C(=O)N1c1ccc(Cc2ccncc2)cc1
nt,-2.9%,-7%,-1%,Cc1nn(Cc2c(F)c(F)c(F)c(F)c2F)c(C)c1NC(=O)c1nn(C)c(C)c1Br
-11,0.0%,23%,1%,O=C(COC(=O)c1ccc(Br)o1)Nc1cccc(S(=O)(=O)N2CCCCCC2)c1
nt,-0.2%,-1%,-2%,CCOC(=O)c1c(C)oc2cc(Br)c(OC(C)C(=O)OCC)cc12 (stereo not given)

3 compounds out of the list above, arranged by the value under Rango release inh, low to high:
compound | GLA inh pH 4.5 | Rango-impB inh | Rango release inh | miR-21 FLuc
Cc1cccc(N=C2NC(=O)/C(=C/C=C/c3ccco3)S2)c1C | -4 | -5.3% | -19% | -12%
CC(=O)c1cccc(N(CC(=O)Nc2ccccc2C(=O)N2CCCC2)S(C)(=O)=O)c1 | nt | -1.5% | -8% | -3%
Cc1ccc2[nH]c(=O)c(C(c3nnnn3CC3CCCO3)N3CCOCC3)cc2c1 (stereo not given) | 4 | -0.5% | 10% | 3%

Continuation.
GLA inh pH 4.5,Rango-impB inh,Rango release inh,miR-21 FLuc,Structure
-3,-0.8%,4%,0%,Cn1c(SCC(=O)N2CCN(c3cccc(Cl)c3)CC2)nnc1-c1ccncc1
-3,-4.0%,11%,25%,Cc1[nH]nc2c1C(C1CC=CCC1)C(C#N)=C(N)O2 (stereo not given)
nt,-0.6%,-19%,nt,COc1ccc(OC)c(CN2CCN(C(=O)c3ccc(C)c(S(=O)(=O)Nc4ccccc4OC)c3)CC2)c1
-1,5.8%,16%,nt,COc1ccccc1C1CC(=O)Oc2cc(OC)c(OC)c(OC)c21 (stereo not given)
-2,?,?,-10%,COc1ccc(C(C)=O)c(Oc2nc(CN3CCOCC3)nc3scc(-c4cccs4)c23)c1
1,0.6%,31%,0%,Cc1ccc2nc(N3CCN(c4ccccc4F)CC3)c(C=O)c(=O)n2c1
0,-0.6%,10%,3%,COC(=O)CSc1nc(-c2ccccc2)nc2ccccc12
-4,?,?,-23%,CCc1ccc(-c2cn3nc(C)c(C)nc3n2)cc1
-13,0.1%,2%,9%,O=C(c1ccoc1)N1CCC2(CC1)Oc1ccc(F)cc1C(=O)C21CC(c2ccccc2)=NO1 (stereo not given)
11,-4.1%,1%,-12%,O=C(O)CC(c1cccc2ccccc12)n1cccc1 (stereo not given)
0,-1.3%,1%,-18%,COc1ccccc1NC(=S)NC(=O)C1CC1
-2,4.6%,-3%,-4%,COc1ccccc1NC(=S)N1CCN(C/C=C/c2ccccc2)CC1
-4,-2.9%,-2%,-1%,CCOc1ccc(-n2c(SCC(=O)N3CCc4ccccc43)nnc2-c2c[nH]c3ccccc23)cc1
-12,2.3%,20%,-36%,CCCN1Cc2cccc(C(=O)Nc3ccc(-c4nc5ccccc5[nH]4)cc3)c2C1=O
4,4.3%,-7%,-6%,CCc1ccc(NC(=O)CSCc2nc(N)nc(Nc3ccccc3CC)n2)cc1
14,4.4%,-12%,0%,COc1ccc(S(=O)(=O)N2C3CCC2CC(NC(=O)NC2CCCCC2)C3)cc1 (stereo not given)
nt,11%,-8%,nt,Cc1c(NC(=O)C(C)Oc2ccc(Br)cc2)c(=O)n(-c2ccccc2)n1C (stereo not given)
2,?,?,-8%,Cc1ccc2c(c1)[nH]c1c(=O)n(CCN3CCNCC3)cnc12
3,-5.4%,-15%,3%,COC(Cn1cc(C)c(=O)[nH]c1=O)OC
2,?,-15%,1%,CCn1c(CSCc2ccc(Cl)cc2)nnc1SCC(=O)Nc1cccc(C(=O)O)c1
nt,-3.5%,0%,5%,O=C(Nc1cccc(NC(=O)c2cncc(Br)c2)c1)c1cncc(Br)c1
0,0.3%,12%,-8%,O=C(C1CCCN(Cc2ccccc2Br)C1)N1CCCCC1 (stereo not given)
-2,3.5%,-9%,0%,CC1=C(C)CC(C(=O)N2CCN(C/C=C/c3ccccc3)CC2)C(C(=O)O)C1 (stereo not given)
-8,-3.9%,-10%,-15%,O=C(Nc1ccc(Br)cc1Cl)N1CCOCC1
-5,?,-4%,-3%,O=S(=O)(Cc1ccccc1)N1CCCC(c2nc(-c3ccc(F)cc3)no2)C1 (stereo not given)
-4,-0.1%,-2%,-10%,O=C1c2ccccc2NC(c2ccco2)N1O (stereo not given)
-1,-7.3%,-1%,nt,CC12CCC3c4ccc(O)cc4CCC3C1CCC2=O (stereo not given)
0,4.8%,?,-2%,CCOC(=O)C1CCCCN1Cc1ccc(OC)c(OC)c1 (stereo not given)
nt,-4.6%,-26%,nt,CC(=O)N1CCN(S(=O)(=O)c2cccc(C(=O)OCC(=O)Nc3c(Cl)cccc3C(F)(F)F)c2)CC1
6,3.1%,3%,25%,Cc1ccc(OCCN2C(=O)C(=O)c3cc(C)ccc32)cc1
-12,-0.2%,1%,-4%,CCOC(=O)C1=C(C)N(C)C(C)=C(C(=O)OCC)C1c1ccc(C(=O)OC)cc1
nt,0.6%,0%,0%,CC1(C)Cc2c(sc(NC(=O)C(=O)NCCCN3CCOCC3)c2C(N)=O)CO1
nt,-0.7%,-1%,3%,CCOC(=O)CCNC(=O)N1CCCC(N(C)CCc2ccc(OC)c(OC)c2)C1 (stereo not given)
1,nt,nt,-2%,O=C(N/N=C/c1ccc2c(c1)OCO2)C(=O)Nc1ccc2ccccc2c1
-3,0.9%,-6%,10%,Cc1cccc(NC(=O)COC(=O)c2ccc([N+](=O)[O-])o2)c1C
-6,1.7%,1%,10%,CCc1ccc(NSc2ccccc2[N+](=O)[O-])cc1
?,nt,nt,-30%,O=C(c1cc2c(=O)n3ccccc3nc2s1)N1CCc2ccccc2C1
2,0.3%,1%,0%,Cn1c(COc2cccc3cccnc23)nnc1SCC(=O)O
-7,2.3%,-3%,-54%,CC(=O)O/N=C(\N)c1ccc(-c2csnn2)cc1
-6,0.3%,-9%,11%,CCN(CC)c1ccc(-n2c(C)cc(C=O)c2C)cc1
0,-1.9%,-9%,12%,COc1ccc(OC)c(-n2cc3c(=O)n(C)c(=O)n(C)c3c2)c1
6,0.2%,37%,0%,COC(C[C@@H]1O[C@@H]1[C@@H](O)[C@@H](C)OCc1ccccc1)OC

These rows are one share of the data; the hit share may differ from the screen's.
